CBX7 AlphaScr = CBX7 chromodomain binding inhibitors, primary screen, biochemical, AlphaScreen. Chromobox protein homolog 7 (Homo sapiens), O95931. AlphaScreen His6-CBX7 / biotin-H3K27me3 peptide binding; hits give low values. normalised signal (fraction of DMSO) (concentration not given with the values). 1.1% of 66,000 active; in the data active means normalised signal below about 0.5;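 further: 100 nL library stock added to about 20 µL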
Target sequence (O95931 whole entry, looked up): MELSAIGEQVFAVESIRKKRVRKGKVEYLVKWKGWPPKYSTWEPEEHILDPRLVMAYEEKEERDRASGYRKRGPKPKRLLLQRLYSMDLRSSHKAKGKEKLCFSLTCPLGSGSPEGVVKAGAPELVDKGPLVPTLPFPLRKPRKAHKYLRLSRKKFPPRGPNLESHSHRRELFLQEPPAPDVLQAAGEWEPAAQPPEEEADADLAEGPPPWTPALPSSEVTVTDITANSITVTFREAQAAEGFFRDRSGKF
CBX7 AlphaScr z-score = recorded beside CBX7 AlphaScr, whose call it bears; z-score; measured here: z-score of CBX7 signal; some inactives read as strong as hits; reference of the scale not given here;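 same signal on another scale; lower means less binding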
Numbers without * were called inactive; & = joins results of further samples. An excerpt; count on the stated rates, not on these rows.

SMILES	CBX7 AlphaScr	CBX7 AlphaScr z-score
COc1ccc(OCC(=O)Nc2ccc3oc(-c4ccccc4F)nc3c2)cc1	1	0.11
O=C(Cn1c2c(c(-c3ccccc3)cc1=O)CCCC2)N1CCCCCC1	0.77	-2.5
COCCNC(=O)CCn1nc(-c2ccc(C)cc2)ccc1=O	1	0.36
CCOC(=O)N1CCC(Nc2c(NCCc3ccc(C)cc3)c(=O)c2=O)CC1	1.1	1.6
COc1ccc(N(C)C(=O)Cn2ncc3c2-c2cc(C)ccc2OC3)cc1	0.98	-0.45
O=C(NCCc1ccccc1)c1cnn(-c2ccccc2)c1-n1cccc1	1	0.88
NC(=O)c1cnn2c(C(F)(F)F)cc(-c3ccccc3)nc12	1	0.37
CCCSCCCNC(=O)CS(=O)(=O)Cc1nc(-c2ccc(C)cc2)oc1C	1	0.028
O=C(O)c1ccc(-n2c(/C=C\c3ccc(F)c(F)c3)nc3ccccc3c2=O)cc1	1.2	2.4
Fc1ccc(-n2cc(-c3ccccc3)c3c(NCc4ccccn4)ncnc32)cc1	0.99	-0.35
CCOc1ccc2nc(N3CCCC(C(=O)NCCOC)C3)sc2c1 (centres undefined)	1	1.2
Cc1cccc(C)c1Nc1c(-c2c[nH]c3ccccc23)nc2cnccn12	0.82	-2.1
OC(COc1ccc(Cl)cc1)CN1CCN(c2ccc(F)cc2)CC1 (centres undefined)	1	-0.037
Clc1ccc(Cc2nc(-c3ccncc3)no2)cc1	1.1	0.99
O=C(CSc1nnc(-c2cccnc2)o1)c1ccccc1	1	1.1
CC(C)N1C(=O)CCC1C(=O)NCCc1ccccc1 (centres undefined)	1	0.9
Clc1cccc2c3c([nH]c12)CCN(Cc1ccccc1)C3	0.82	-8.1
COc1ccc(CC(=O)NCC2(c3ccccc3)CCCC2)cc1OC	0.87	-0.31
CCN1CCN(CCCNC(=O)c2cc3c(-c4cccc(OC)c4)nn(C)c3s2)CC1	1	0.87
Cc1cccc(NC(=O)C2CCCN2S(=O)(=O)c2cccc3cccnc23)c1C (centres undefined)	1.1	2.5

Arranged by number of heavy atoms (highest first): some entries from above
SMILES	CBX7 AlphaScr	CBX7 AlphaScr z-score
COc1ccc(OCC(=O)Nc2ccc3oc(-c4ccccc4F)nc3c2)cc1	1	0.11
COc1ccc(CC(=O)NCC2(c3ccccc3)CCCC2)cc1OC	0.87	-0.31
CCOc1ccc2nc(N3CCCC(C(=O)NCCOC)C3)sc2c1 (centres undefined)	1	1.2
NC(=O)c1cnn2c(C(F)(F)F)cc(-c3ccccc3)nc12	1	0.37
O=C(CSc1nnc(-c2cccnc2)o1)c1ccccc1	1	1.1

(listing goes on)
SMILES	CBX7 AlphaScr	CBX7 AlphaScr z-score
COc1ccc(-c2nc(-c3ccccc3)c(-c3ccc(F)cc3)[nH]2)c(OC)c1C	0.48*	-0.51*
O=[N+]([O-])c1ccc(OCC(O)CN2CCN(c3ccccc3)CC2)cc1 (centres undefined)	1.5	0.96
Cc1ccc2c(c1)C(c1ccc(F)cc1)N(C(=O)c1ccc(S(=O)(=O)N(C)C)cc1)CC(=O)N2 (centres undefined)	0.82	-2.6
CC(C)NC(=O)c1cc2n(n1)C(C(F)(F)F)CC(c1ccc(Br)cc1)N2 (centres undefined)	0.96	-0.78
Cc1cc(C)n(-c2nnc(-c3ccccc3)c(-c3ccccc3)n2)n1	0.97	-1.2
COc1cccc(-c2nn(C)c3sc(C(=O)N4CCC(C(N)=O)CC4)cc23)c1	0.99	-0.27
Cc1ccc(NC(=O)C2CCCN(S(=O)(=O)c3c(C)noc3C)C2)nc1 (centres undefined)	1.2	2.5
COc1ccc(C2(C(=O)NCCCN(C)C)CCOCC2)cc1	1	1.1
Cc1oc(-c2ccc(Cl)cc2)nc1CN1CCCC(C(=O)NC2CCCCC2)C1 (centres undefined)	1	1.1
O=C(NCc1cccs1)c1cc(-c2ccc(F)cc2)on1	1	0.49
CCOc1ccc2nc(N3CCCC(C(=O)NCCC(C)C)C3)sc2c1 (centres undefined)	1.1	2.9
CCOCCCNC(=O)C1CCCN(Cc2nc(-c3cccc(C)c3)oc2C)C1 (centres undefined)	1	1.3
COc1ccccc1NC(=O)CN(c1ccc(C(C)C)cc1)S(=O)(=O)c1c(C)nn(C)c1C	0.96	-1.5
Cn1c(=N)n(CCOc2ccc(Cl)cc2)c2ccccc21	1.1	2.5
O=C(CSc1ncc(-c2ccccc2)[nH]1)Nc1ccccc1F	0.83	-4.4
CCOC(=O)c1cnc2c(Cl)cccc2c1Nc1ccccc1C	1	0.059
COc1ccc(Br)cc1CNC(=O)CCc1nc(-c2ccccc2F)no1	1.1	2.4
CC(C)N1C(=O)CCC1C(=O)NCc1ccccc1Cl (centres undefined)	1.1	1.5
O=C1CC(NCc2ccc(Cl)cc2)C(=O)N1c1ccccc1 (centres undefined)	1	0.12
CCc1ccccc1NS(=O)(=O)c1ccc2[nH]cc(C(=O)NCc3cccnc3)c(=O)c2c1	1.2	2.9
CC1CCC(NC(=O)C2CCC(CNS(=O)(=O)c3cccc4cccnc34)CC2)CC1 (centres undefined)	1	-0.069
Cc1ccc(-c2nc(-c3cccnc3)no2)cc1	1	0.033
O=C(Nc1ccc(F)c(Cl)c1)c1cc(-c2ccc(F)cc2)on1	1	-0.16
CCc1cc(C)cc(OCCOc2ccc(-c3nc4sc5c(c4c(=O)[nH]3)CCCC5)cc2OC)c1	1.1	1.2
Cc1ccc(Cn2nnc3c(=O)n(CC(=O)NCc4ccccc4)cnc32)cc1	0.94	-1
Cc1ccc(-c2ccc(=O)n(CC(=O)NCc3ccc4c(c3)OCO4)n2)cc1	0.99	-0.48
COC(=O)c1cc2c(s1)CN(C1CCCCC1C)C2 (centres undefined)	1.1	1.1
COc1ccc(C2CC(=O)NC3=C2C(=O)CCC3)cc1Br (centres undefined)	1	0.33
CCOc1ccc(C(=O)Nc2cc(-c3nc4ncccc4o3)ccc2C)cc1	0.99	-0.044
CCc1ccccc1NC(=O)CSc1nc2nc(C)c(Cc3cccc(C)c3)c(C)n2n1	0.86	-1.4
Cn1cc(CC(=O)N2CCN(c3ccccc3F)CC2)c2ccccc21	0.96	-0.42
CCCCNC(=O)c1cnn2c(C(F)(F)F)cc(-c3cccs3)nc12	1.1	2.2
CCCCOc1ccccc1NC(=O)Cn1nnc(-c2ccc(OCc3ccccc3F)cc2)n1	1.2	1.8
O=C(NCc1cccs1)c1ccc2c(c1)N(Cc1ccc(F)cc1)C(=O)CS2	0.82	-1.8
Cn1c(=O)n(CC(=O)NCc2cccnc2)c2ccccc21	1.1	2.4
COc1ccc(C(=O)N2CCCC(C(=O)N3CCCCCC3)C2)cc1 (centres undefined)	0.99	-0.22
CC1CCCN(S(=O)(=O)c2ccc3[nH]c(=O)cc(C(=O)NCCCN4CCCCCC4)c3c2)C1 (centres undefined)	1.1	1.8
Cc1ccc(Cl)cc1NC(=O)C1CCN(S(=O)(=O)c2cnc[nH]2)CC1	1.1	0.85
Cc1ccc(NC(=O)C2CCN(C(=O)c3cnn(-c4ccccc4)c3-n3cccc3)CC2)c(Cl)c1	1.4	0.81
Cc1cc2nc(-c3cccc(NC(=O)c4ccc5c(c4)OCCO5)c3C)oc2cc1C	0.92	-1
COc1ccc(-c2cc(C(=O)Nc3cccc(C(F)(F)F)c3)no2)cc1OC	1	0.49
N#Cc1ccc(Cl)cc1NC(=O)c1cnc2sccn2c1=O	1	0.72
COc1ccc2nc(C)c3c(c2c1)OC(C)C3 (centres undefined)	1	0.064
Cc1nc2c(-c3ccccc3)c(C)nn2c(C)c1CCC(=O)NCc1ccccc1	1.1	2
COc1ccccc1-c1cc2nc(C)c(CCC(=O)N3CCCCC3)c(C)n2n1	0.96	-0.64
CCN(CC)S(=O)(=O)c1ccc(-c2csc(Nc3ccc(C)c(C)c3)n2)cc1	0.76&0.81	-1.6&-2.4
O=C(CCNS(=O)(=O)c1ccc2c(c1)CCC(=O)N2)Nc1ccccc1F	1.1	2.6
COc1ccc(-c2c(C)nn3c(NCCN4CCCC4)cc(C)nc23)cc1OC	0.94	-1.6
COc1cc(C)c2c(=O)c(-c3nc(C)cs3)coc2c1	0.94	-0.91
CCc1ccc(NC(=O)C(NS(=O)(=O)c2cccs2)c2ccccc2)cc1 (centres undefined)	0.84	-0.16
Cc1nc(SCC(=O)c2ccc3c(c2)OCCO3)c2cc(-c3ccccc3)sc2n1	1	0.047
COc1cccc(CNC(=O)C2(NS(=O)(=O)c3cccc4cccnc34)CCCCC2)c1	0.97	-1.4
CCOC(=O)c1cc(-c2ccccc2)n(CCC(=O)NC2CCCCC2)c1C	1	0.75
CCOC(=O)c1cnc2c(C)cc(C)cc2c1Nc1ccccc1CC	1.2	1.5
Cc1ccc(C)c(NC(=O)Cn2cc(S(=O)(=O)c3ccccc3)c(=O)c3cc(Cl)ccc32)c1	0.84	-2.6
Cc1nn(Cc2ccccc2)c(C)c1NC(=O)CCC(=O)O	0.97	-0.72
COC(=O)c1cn(C)c2ccc(S(=O)(=O)N3CCCCC3)cc2c1=O	1	0.5
NC(=O)c1c(NC(=O)CSc2nc3ccccc3o2)sc2c1CCCC2	1.2	1.2
Cc1cc(N2CCCCC2)nc2ccc(NC(=O)CCC(=O)NCC3CCCO3)cc12 (centres undefined)	0.86	-6.1
CCOc1ccccc1NC(=O)c1c(NCc2ccccn2)sc2c1CCCCC2	0.78	-11
Continued:
SMILES	CBX7 AlphaScr	CBX7 AlphaScr z-score
COc1ccccc1Nc1cc(C(=O)NC2CCCCC2)c2ccccc2n1	1.1	0.09
CCOCCCN1CC(C(=O)NCCc2ccccc2)CC1=O (centres undefined)	0.97	-1
Cc1ccc(CNC(=O)CN(c2ccc(C)cc2)S(=O)(=O)c2c(C)noc2C)cc1	0.97	-0.25
COc1ccc2cc(CCNC(=O)C(C)Oc3ccccc3)c(=O)[nH]c2c1 (centres undefined)	1.1	1.6
Cc1ccc(CCNC(=O)c2c[nH]c3ccc(S(=O)(=O)Nc4cc(C)cc(C)c4)cc3c2=O)cc1	1	0.48
C(=C\c1ccccc1)/CSc1nnc(-c2cccnc2)o1	1.1	1.6
COc1ccc(-c2nc(C(=O)NCc3ccccc3)c(C)o2)cc1	0.96	-1.7
CCOc1ccccc1NC(=O)Cn1cnc2c1c(=O)n(C)c(=O)n2C	1	0.39
COc1ccc2nc(N3CCCC(C(=O)N4CCN(c5ccccn5)CC4)C3)sc2c1 (centres undefined)	0.71	-4.9
Cc1nc2c(c(C)nn2-c2ccccc2)c(C)c1CCC(=O)O	1.1	0.64
Cc1ccc(Nc2ncc(C(=O)N3CCOCC3)c3ccccc23)cc1Cl	1.1	5.4
COc1cc2c(cc1OC)C(c1ccc(F)cc1)CC(=O)N2 (centres undefined)	0.9	-1.8
Cc1ccc(-c2csc(NC(=O)c3ccc(S(=O)(=O)N4CCCCC4)cc3)n2)cc1C	0.99	-0.14
CCN1C(=O)CSc2ccc(C(=O)NCc3ccc(OC)cc3)cc21	1	0.35
CCN(CC)C(=O)c1c[nH]c2ccc(S(=O)(=O)Nc3ccccc3F)cc2c1=O	0.91	-1.7
O=C(NC1CCCCC1)C1c2ccccc2C(=O)N1Cc1cccnc1 (centres undefined)	0.97	-0.37
CCOc1ccc(C2CC(=O)NC2=O)cc1Br (centres undefined)	1.1	1.3
CCOc1ccccc1N(C)C(=O)c1sc2ncn(CC(=O)N3CCCCC3C)c(=O)c2c1C (centres undefined)	1.3	6.4
COc1ccc(OC2C(=O)N(Cc3ccc4c(c3)OCO4)C2c2cccs2)cc1 (centres undefined)	1	0.57
Cc1cccc(CCNC(=O)c2ccc(CNc3c(NC4CCCC4)c(=O)c3=O)cc2)c1	0.92	-0.17

Complete entries, looked up by structure. Screens in order: CBX7 AlphaScr	CBX7 AlphaScr z-score
`O=C(NC1CCCCC1)C1c2ccccc2C(=O)N1Cc1cccnc1` (centres undefined) is listed as 0.97	-0.37
`COc1ccccc1Nc1cc(C(=O)NC2CCCCC2)c2ccccc2n1` is listed as 1.1	0.09
`Cc1ccc(-c2csc(NC(=O)c3ccc(S(=O)(=O)N4CCCCC4)cc3)n2)cc1C` is listed as 0.99	-0.14

Retrieved by compound from the entries so far:
SMILES	CBX7 AlphaScr	CBX7 AlphaScr z-score
CCN(CC)C(=O)c1c[nH]c2ccc(S(=O)(=O)Nc3ccccc3F)cc2c1=O	0.91	-1.7
C(=C\c1ccccc1)/CSc1nnc(-c2cccnc2)o1	1.1	1.6
COc1ccc2cc(CCNC(=O)C(C)Oc3ccccc3)c(=O)[nH]c2c1 (centres undefined)	1.1	1.6
CCOc1ccc(C2CC(=O)NC2=O)cc1Br (centres undefined)	1.1	1.3
COc1ccccc1Nc1cc(C(=O)NC2CCCCC2)c2ccccc2n1	1.1	0.09

Continued:
SMILES	CBX7 AlphaScr	CBX7 AlphaScr z-score
COCCNC(=O)CN1C(=O)COc2ccc(S(=O)(=O)N3CCCC3)cc21	1	0.21
COc1ccccc1-c1cc(C(F)(F)F)nc(S(=O)(=O)CCCC(=O)NC(C)C)n1	1.1	2.4
CCCCN(CCCC)CCNC(=O)c1csc2c1CCCCC2	0.98	-0.59
COCCNC(=O)CCn1c(=O)[nH]c2cc(OC)c(OC)cc2c1=O	1	0.38
Cc1[nH]c2ccc(OCc3ccccc3)cc2c1CCNC(=O)c1ccnn1C	0.48*	-1*
Cc1ccc(S(=O)(=O)c2nc(-c3ccc(F)cc3)oc2N(C)C)cc1	0.94	-1.6
O=c1cc(-c2ccc(Cl)cc2)[nH]n1-c1nc2ccccc2s1	1.2	5.2
O=S(=O)(c1ccc(-c2csc(N3N=C(c4ccccc4)CC3c3ccccc3)n2)cc1)N1CCCCC1 (centres undefined)	1.1	1.6
CCN1CCN(CCNC(=O)c2nc(-c3ccc(C)cc3)oc2C)CC1	0.83	-0.68
